UUG fidelity – alters start codon recognition fidelity in yeast; S. cerevisiae UUG-firefly luciferase reporter, luminescence/redox ratio; activity score, % at 18.7 µM; 0.13% of 350,000 active; AID 602363;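 active = replicate mean at a twofold rise or more, about +100% in these data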;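 also: firefly luciferase made from a UUG start codon reports start codon fidelity; reporter light over untreated wells divided by growth signal over untreated wells; some hits fall short of that in this replicate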
CSC inhib – blocks cancer stem cells. 1.1% of 300,000 active. inhibition, % at 7.5 µM. cancer stem cell-like cells viability, luminescence;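 active = mean at 75% or more and at least half the replicates too; inconclusive = mean and replicates disagree; tested in HMLE shEcad cells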;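 also: 0% = median of negative and 100% = median of positive control wells; the first replicate is given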
MT1-MMP act inh – blocks activation of human MT1-MMP; P50281; 0.061% of 360,000 active; HT1080 RFP-PRO-GFP cells, GFP/RFP ratio fluorescence, overnight; percent of plate control window, DMSO zero; GFP/RFP ratio change, % at 20 µM;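 active = GFP/RFP ratio change of at least 30% with cell ATP level not reduced by more than half and red fluorescence within 50% of control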; also: strong numbers were not always called active
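Material: RFP-PRO-GFP reporter HT1080 cells. Dosing: single-point 20 µM compound, 1% DMSO. Controls: DMSO and RFP-L50D-GFP cell wells. Timing: cells overnight before dosing, compound overnight, 37 °C, 5% CO2. Measure: GFP/RFP fluorescence ratio.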
eIF4H FP inh – inhibitors of RNA binding by human eIF4H; Q15056; eIF4H fluorescence polarization binding assay; inhibition, % at 35 µM; 0.94% of 290,000 active; AID 2012;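 active = 50% or more with normal probe brightness, or confirmed in later tests; inconclusive = above 50% with abnormal brightness, or retests that disagree; inactive = below 50% or failed in later tests; about a fifth of its hits are not listed in these tables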;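 also: calls also rest on retests at 20 µM and on dose response follow-up; 0% = protein and probe with vehicle and 100% = probe without protein; strong numbers were not always called active; many hits fall short of the cut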
Rce1 inhib – inhibitors of yeast Ras-converting enzyme; Q03530; yeast membranes, quenched prenylated peptide cleavage fluorescence; calls only; 0.27% of 290,000 active;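 active = fall in fluorescence gain of 50% or more versus controls, with final raw signal at or below 3038400; inconclusive = same 50% fall but final raw signal above 3038400; inactive = fall in fluorescence gain under 50%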;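 also: plate controls were neutral control wells for no effect and wells lacking membranes for full effect; tested at 10 µM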
Env fusion inh – HIV envelope-mediated fusion inhibition. HeLa-JRFL Env/CEM21 cell fusion, luciferase. inhibition, % at 12.3 µM. 1.1% of 360,000 active;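 active = mean replicate inhibition score of at least 50 and every replicate individually at or above 50; inconclusive = only one of the two criteria met; inactive = mean below 50 and not all replicates reaching 50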;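 also: 0% = plate neutral controls and 100% = maraviroc near 300 nM; one replicate is shown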
PABP FP inh – blocks human PABP binding to poly(A) RNA; fluorescence polarization; inhibition, % at 35 µM; 1% of 290,000 active; AID 2014;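 active = 50% or more with normal probe brightness, or confirmed in later tests; inconclusive = above 50% with abnormal brightness, or retests that disagree; inactive = below 50% or failed in later tests; about a fifth of its hits are not listed in these tables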;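 also: calls also rest on retests at 20 µM and on dose response follow-up; controls were probe without protein and protein plus probe with vehicle; some compounds called inactive have numbers as strong as hits; many hits fall short of the cut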
Target sequence (P11940 whole entry, looked up): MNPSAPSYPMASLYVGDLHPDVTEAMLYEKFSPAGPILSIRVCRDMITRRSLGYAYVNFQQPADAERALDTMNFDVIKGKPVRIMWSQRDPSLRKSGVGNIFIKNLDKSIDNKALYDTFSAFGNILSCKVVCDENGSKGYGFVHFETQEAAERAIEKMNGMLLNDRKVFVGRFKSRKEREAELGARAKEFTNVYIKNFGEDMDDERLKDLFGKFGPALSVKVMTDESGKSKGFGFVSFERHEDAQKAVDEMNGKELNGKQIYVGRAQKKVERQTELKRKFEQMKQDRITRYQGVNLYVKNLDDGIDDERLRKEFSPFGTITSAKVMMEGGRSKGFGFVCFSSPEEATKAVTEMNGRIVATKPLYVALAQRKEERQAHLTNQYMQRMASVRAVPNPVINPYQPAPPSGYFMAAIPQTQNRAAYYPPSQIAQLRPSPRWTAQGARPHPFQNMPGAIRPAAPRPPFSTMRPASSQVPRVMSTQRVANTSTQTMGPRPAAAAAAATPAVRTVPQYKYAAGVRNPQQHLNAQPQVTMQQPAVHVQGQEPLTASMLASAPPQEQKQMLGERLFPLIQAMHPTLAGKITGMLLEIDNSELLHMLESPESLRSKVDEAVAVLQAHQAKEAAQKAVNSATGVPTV
MT1-MMP act inh RFP – second read-out of MT1-MMP act inh, no call of its own (marks repeat the call); RFP signal change, %; measured here: RFP expression control read;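 0 = vehicle wells; hits needed this value within 50% of zero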
* hit, by the source's call; i = inactive; ? = inconclusive; . = not tested or not shown; + = active, no number. Some of the compounds tested; count on the stated rates, not on these rows.

SMILES	UUG fidelity	CSC inhib	MT1-MMP act inh	MT1-MMP act inh RFP	eIF4H FP inh	Rce1 inhib	Env fusion inh	PABP FP inh
Cn1c(=O)oc2cc(S(=O)(=O)NCc3ccc(Cl)cc3)ccc21	-13	0	-2	3	-8	i	-8	1
CCc1ccc(CNc2ccc3c(c2)ncn3C(C)(C)C)cc1	-26	-3	-3	-3	-4	i	11	-6
CNc1snc(C)c1C(=O)OCC(=O)NCc1ccccc1OC	.	-16	13	-9	.	.	9	.
CC(C)Nc1ccc(C(CC(N)=O)NC(=O)Cc2cccc3ccccc23)cc1[N+](=O)[O-] (stereo unspecified)	-14	-15	11	2	?	i	-1	48
CCOC(=O)c1ccc(N=c2ssnc2Cl)cc1	-18	.	0	2	1	i	-8	-6
Cc1ccc(NC(=O)c2ncc(Cl)c(Cl)c2Cl)cc1C	-26	-1	-1	4	3	i	-19	-7
CC/C(=N/NC(=O)c1ccc(Br)o1)c1ccc(Cl)cc1	.	-4	3	5	2	i	.	4
COc1ccc(C)cc1S(=O)(=O)N(C)CC(=O)Nc1ccc2c(c1)OCCO2	-11	-15	3	0	3	i	.	6
Cc1cccc(/C=N/n2c(C3CCCCC3)n[nH]c2=S)c1	-23	.	1	-2	16	i	.	-5
COc1cc(N2C(=O)CSC23C(=O)Nc2ccccc23)cc(OC)c1OC (stereo unspecified)	-11	0	0	2	-6	i	2	1
CN(C)c1ccc(/C=c2\sc3nc(-c4ccccc4)nn3c2=O)cc1	.	.	.	.	-5	i	.	-4
COC(=O)c1ccc(C)c(NC(=O)Cc2ccc([N+](=O)[O-])cc2)c1	.	2	.	.	-4	i	13	-11
O=C(c1ccc(-c2ccccc2)cc1)N1CCC(C(=O)N2CCCC2)CC1	15	-2	-1	-3	2	i	.	-8
O=C(CSc1nc(O)cc(=O)n1-c1ccccc1)c1ccc(Br)cc1	-11	-12	-5	2	10	i	-4	45
CC1CN(C(=O)COC(=O)c2ccc(F)cc2Cl)CC(C)O1 (stereo unspecified)	-7	-11	3	0	12	i	3	7
O=C(NCCc1ccccc1)c1cccnc1	-2	-9	-1	-3	-16	i	-37	3
Cn1c(=O)c(C#N)c(-c2ccccc2)n2cnnc12	4	-14	-2	1	-3	.	.	0
CC(=O)NCCc1ccc(C(=O)COC(=O)c2cc(C)oc2C)cc1	-8	-8	-3	-6	.	.	-9	.
COc1cc(C2C(C(=O)c3ccc(C)o3)=C(O)C(=O)N2c2cc(C)on2)ccc1OCc1ccccc1 (stereo unspecified)	-28	-20	0	2	4	i	1	2
Cc1ccc(-c2nc(CN(C)C3CCOCC3)c(C)o2)s1	-13	-4	-2	0	6	i	-21	-5

Single records, as listed above. Screens in order: UUG fidelity	CSC inhib	MT1-MMP act inh	MT1-MMP act inh RFP	eIF4H FP inh	Rce1 inhib	Env fusion inh	PABP FP inh
CN(C)c1ccc(/C=c2\sc3nc(-c4ccccc4)nn3c2=O)cc1 as listed: .	.	.	.	-5	i	.	-4
CCc1ccc(CNc2ccc3c(c2)ncn3C(C)(C)C)cc1 as listed: -26	-3	-3	-3	-4	i	11	-6

Continued:
SMILES	UUG fidelity	CSC inhib	MT1-MMP act inh	MT1-MMP act inh RFP	eIF4H FP inh	Rce1 inhib	Env fusion inh	PABP FP inh
CCOC(=O)CNC(=O)c1cc(OC)cc(OC)c1	-17	0	7	4	-2	i	-17	0
COc1cc(C=C(C(C)=O)C(C)=O)ccc1O	-21	-11	-9	-2	-2	i	-18	-6
CCS(=O)(=O)N1CCC(C(=O)Nc2cc(Cl)ccc2O)CC1	-10	.	0	5	-4	i	8	0
CCOC(=O)CC(NC(=O)C(CC)c1ccccc1)c1ccccc1Cl (stereo unspecified)	6	-13	2	-3	0	i	-60	2
O=C(NNS(=O)(=O)c1ccc(Br)cc1)c1ccccc1-n1cccc1	7	4	0	1	-5	i	22	4
Cc1cc(C(=O)CSc2nc3ccccc3c(=O)n2C)c(C)n1CC1CCCO1 (stereo unspecified)	.	.	.	.	10	i	.	-5
CCSc1nc2sc3c(c2c(=O)[nH]1)CCCC3	-13	-9	-1	0	-7	i	-32	-5
COCCN(C(=O)COC(=O)/C=C/c1ccc(SC)cc1)c1c(N)n(Cc2ccccc2)c(=O)[nH]c1=O	-7	.	-3	-3	.	.	1	.
Cc1ccc2[nH]c3c(=O)n(CCN4CCOCC4)cnc3c2c1	-23	0	3	7	-3	i	.	5
CN1CCN(c2nc3ccccc3nc2NS(=O)(=O)c2ccc(Br)cc2)CC1	1	-17	-1	1	.	.	-12	.
CCOC(=O)c1cnn2c(C(F)(F)F)cc(-c3cn(C)nc3C)nc12	11	-9	-2	-8	2	i	.	-4
C=CCOC(=O)c1ccc(-n2cnc(C)n2)nc1	.	11	-1	0	-12	i	-26	0
CC(=O)n1cc([C@@H]2C=C(C(=O)O)O[C@H](OCc3ccc(CO)cc3)C2)c2ccccc21	1	-15	0	0	-1	i	-18	-3
O=C(Nc1ccc(C(=O)N2CCOCC2)cc1)c1ccccc1	-14	.	2	4	.	.	-11	.
O=C(NCc1ccc(Cl)cc1Cl)C(=O)N1CCCCC1	-10	.	0	6	4	i	-17	-1
O=C1C=C(NCCN2CCOCC2)C(=O)c2cnccc21	.	-14	.	.	8	i	.	-4
CSc1ccc(/C=C/C(=O)c2ccc(NC(=O)Cc3ccccc3)cc2)cc1	-14	17	-1	-11	-15	i	-31	-2
CCOC(=O)C1CCCN(C(=O)C2CCCN(S(=O)(=O)c3ccc4c(c3)oc(=O)n4C)C2)C1 (stereo unspecified)	-18	0	-1	-1	0	i	18	9
CN(CCOc1ccc(Cl)cc1)C(=O)Cc1ccc(S(=O)(=O)N2CCOCC2)s1	3	6	1	-4	.	.	.	.
CCN(CC)CCN(C(=O)Cn1nnc(-c2ccc(C)o2)n1)C(C(=O)NC1CCCC1)c1ccc(F)cc1 (stereo unspecified)	-8	.	-2	1	-3	i	5	-5
COc1cc2c(cc1OC)CN(S(=O)(=O)c1ccc(Cl)nc1)CC2	-10	.	0	1	.	.	0	.
N#CCCN(C(=O)COC(=O)c1cccc(S(=O)(=O)N2CCCCCC2)c1)c1ccc(F)cc1	-15	.	-3	0	.	.	1	.
CCn1cnc2c(oc3ccccc32)c1=O	-9	2	-1	0	-4	i	4	-10
CCN(C(=O)COC(=O)CSc1ccc(F)cc1)c1c(N)n(Cc2ccccc2)c(=O)[nH]c1=O	-6	4	1	3	.	.	.	.
COc1cccc(OC)c1C(=O)NCCN1CCN(C(=O)c2c(OC)cccc2OC)CC1	1	-12	6	-5	2	i	-15	-4
CCOC(=O)c1ccccc1NC(=S)N1CCC(N2CCCCC2)CC1	.	-13	0	2	2	i	-5	4
O=C(CSc1nnc(CNc2ccccc2)o1)N1CCCc2ccccc21	-14	2	4	7	-8	i	-21	-5
COc1cc2c(c(OC)c1O)C(=O)CO2	-12	-6	5	5	-6	i	-1	12
CN(c1ccccc1)S(=O)(=O)c1ccc(C(=O)Nc2ccncc2)cc1	-7	6	6	-12	.	i	14	.
CC(=O)Nc1ccc(NC(=O)[C@@H]2CCCN2S(=O)(=O)c2ccc3c(c2)OCCO3)cc1	-1	.	-1	1	6	i	-24	-4
COCCn1nnnc1C(c1cccc(C(F)(F)F)c1)N1CCOCC1 (stereo unspecified)	-4	1	2	3	4	i	.	4
CC(=O)N(/C=C1\SC(=S)N(c2ccccc2)C1=O)c1ccccc1	-3	-10	13	14	-3	i	-1	-5
CCCCC(CC)C(=O)NCc1ccc(F)cc1 (stereo unspecified)	-6	41	-1	4	-1	i	-1	2
O=C(Nc1ccc2oc(-c3ccccc3)nc2c1)c1ccncc1	-24	-2	-2	-22	0	i	.	-3
N#Cc1c(N)n(-c2ccc(N)cc2)c2nc3ccccc3nc12	.	-16	4	1	-1	i	-5	7
Cc1cc(C(=O)N/N=C/c2cc(Br)cc([N+](=O)[O-])c2O)c2ccccc2n1	.	40	2	1	22	i	.	-3
COc1cccc(NC(=S)NC(=O)c2cncc(Br)c2)c1	-16	-24	0	3	.	i	5	.
CCOCCn1c(=O)c2c(nc3n2CC(C)CN3Cc2ccccc2)n(C)c1=O (stereo unspecified)	-2	-18	1	2	-14	i	3	11
CN(C)C1=NC[C@H](Cc2ccccc2)N1CC1CCC(C(C)(C)C)CC1 (stereo partly specified)	-14	25	5	3	-2	i	.	6
O=C(NNC(=O)C12CC3CC(CC(C3)C1)C2)c1ccccc1F	-6	0	-3	-6	-7	i	-9	4
COc1ccc(CCNC(=O)C(=O)NCC2OCCN2S(=O)(=O)c2ccc(F)cc2)cc1 (stereo unspecified)	-12	-7	-1	-2	-1	i	.	0
CCCCNC(=O)CCn1c(=O)c2ccccc2n(Cc2ccc(F)cc2)c1=O	.	-12	1	0	8	i	.	-2
Cc1ccc(NC(=O)CN2C(=S)NC(C)(C)CC2C)cc1Cl (stereo unspecified)	.	.	-3	-12	0	i	17	-1
CC(=O)N(C(C)=O)c1ccc2c(c1)OCCO2	-9	.	-2	5	.	.	-3	.
CCC(=O)c1ccc(OC)c(OC)c1O	-19	6	1	5	5	i	-7	11
COc1cc(C)c(NC(=O)C(=S)N2CCCC2)cc1C	.	-8	1	3	9	i	-1	2
O=C(Nc1cc(S(=O)(=O)N2CCOCC2)ccc1N1CCCC1)c1cnccn1	.	-9	-3	0	-18	+	10	-16
COc1ccc(CCNC(=O)C2C3CCC(C3)C2C(=O)O)cc1OC (stereo unspecified)	12	-5	7	2	40	i	-21	-9
Cc1ccc(N2CC(C(=O)Nc3nnc(SCc4ccccn4)s3)CC2=O)cc1 (stereo unspecified)	5	-14	1	2	5	i	-11	3
CC1Cc2ccccc2N1C(=O)CN1C(=O)NC(C)(CCc2ccccc2)C1=O (stereo unspecified)	15	-2	-2	-1	-5	i	-2	0
The results go on:
SMILES	UUG fidelity	CSC inhib	MT1-MMP act inh	MT1-MMP act inh RFP	eIF4H FP inh	Rce1 inhib	Env fusion inh	PABP FP inh
CCN(CC)CCN1C(=O)c2oc3ccc(F)cc3c(=O)c2C1c1ccncc1 (stereo unspecified)	-17	7	-3	4	-10	i	-14	6
CCC(C)[C@H](NC(=O)Nc1ccc(Oc2ccccc2)cc1)C(=O)O (stereo partly specified)	.	5	2	1	-2	i	.	2
Clc1ccc(-c2noc(COc3ccccc3)n2)cc1	-18	-1	4	4	2	i	-62	-1
Cc1ccc(NS(=O)(=O)c2ccc3c(c2)NC(=O)CO3)c(C)c1	12	15	1	-7	-2	i	2	2
N/C(=N\OC(=O)c1ccccc1)C(C(=O)NOC(=O)c1ccccc1)C1CCCCC1 (stereo unspecified)	-13	.	6	-2	.	.	-19	.
Cc1ccc(NS(=O)(=O)c2cccc(C(=O)N3CCN(c4ncccn4)CC3)c2)cc1	-11	4	2	-9	.	.	4	.
Cc1ccccc1N1CCN(S(=O)(=O)c2cccs2)CC1	-13	14	3	-5	-5	i	-5	0
COc1ccc(-c2n[nH]c(=S)n2Cc2ccco2)cc1	.	-6	2	3	7	i	0	14
CCC(=O)Nc1cccc(NC(=S)NC(=O)Cc2ccccc2)c1	-8	-1	-2	4	0	i	.	-3
CCOc1cc2c(cc1/C=C/C(=O)O)OC(C)C2 (stereo unspecified)	.	17	-2	1	-10	?	0	7
Cc1ccc(S(=O)(=O)N2CCC(=O)N(CCOCc3cccc(C)c3)CC2)cc1	-3	-13	5	-1	-4	i	15	8
Nc1nc(Nc2ccccc2)nc(N2CCCC2)c1[N+](=O)[O-]	9	17	-9	-8	8	i	-53	-8
CCOc1ccccc1OC(C)C(=O)Nc1ccc(S(=O)(=O)N2CCCC2)cc1 (stereo unspecified)	-9	0	-1	0	-2	i	-5	3
CNC(=O)NC(=O)C(C)OC(=O)c1c(C)noc1C (stereo unspecified)	.	-5	-1	1	-7	.	.	-12

From PubChem
